# StopGo reporter: High Throughput Screening for Foot and Mouth Disease Virus Antivirals. human cells with a luciferase reporter of 2A StopGo recoding; control for the full effect not named in the record. Potency, µM (highest dose often 57.9 µM), for the others: top-dose signal change, negative = less light. 410,000 tested, 1.2% active. AID 1159524, 2015; active = well fitted falling curve with a large enough effect; inconclusive = small, poorly fitted or top-dose-only effect; inactive = no such curve, though single readings can be large or run the other way; tested in HEK293T cells; note: nearly all actives have a fitted effect of over 45% in size; luciferase light after 4 h
# RE007 growth inh: qHTS Assay for Inhibitors of the HIV-1 protein Vpr; Potency, µM (highest dose often 92.2 µM), for inactives: at the highest dose activity change, negative = less growth; 360,000 tested, 0.21% active; AID 651644, 2012; S. pombe RE007 Vpr strain, BacTiter-Glo ATP luminescence, 24 h; control for the full effect not named in the record; active = well fitted falling curve with a large enough effect; inconclusive = small, poorly fitted or top-dose-only effect; inactive = no such curve, though single readings can be large or run the other way;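 note: nearly all actives have a fitted effect of over 50% in size; the assay follows cell death caused by Vpr and the record does not say whether a fall means rescue or toxicity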
#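 Fission yeast strain RE007, carrying one chromosomally integrated HIV-1 vpr copy, was seeded at OD 0.01 in PMG+AL medium with 23 nL pinned compound. After 24 h at 30 °C and 99% humidity, viability was read by BacTiter-Glo luminescence.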
# An asterisk follows results filed as active; ? = inconclusive; & = joins results of further samples; [ ] = dose if it differs, or a comment. % is set by controls: 0 for no effect and ±100 for the full control effect; potency is the fitted concentration of half-maximal effect.
SMILES	StopGo reporter	RE007 growth inh
c1ccc(-c2nc3ccccc3n2C(c2ccccc2)c2nc3ccccc3[nH]2)cc1 (stereo not drawn)	24%	-27%
CC1(C)CC(=O)C=C(c2n[nH]nc2-c2ccc(F)c(F)c2)C1	0%	24%
OC[C@@H]1CN(Cc2ccc3c(c2)OCO3)C[C@H](n2cnc3c(N4CCOCC4)ncnc32)O1	-22%	3%
COc1cccc(Cn2cnc(-c3ccccc3OC)c2-c2cc(C)cc(C)c2)c1	-11%	-16%
CCNC(=O)c1cc2c(c(-c3cccc(-c4cncnc4)c3)n1)[C@H](CCO)N(C(C)=O)C2	-21%	3%
CC(=O)Nc1cnc(-c2cccc(C(=O)N3CCOCC3)c2)cn1	7%	17%[18.4 µM]
O=C1[C@H](Cc2ccccc2)NCC=CC[C@@H](c2ccc(Cl)cc2)N1Cc1ccccc1	-21%	4%
CC(=O)O[C@@H](C[C@@H](C)C1=C2C[C@H](O)C3[C@@]4(C)CCC(=O)C(C)(C)C4CC[C@]3(C)[C@@]2(C)CC1)[C@H]1OC1(C)C (stereo partly drawn)	?	8%
COc1ccc(C(=O)N2CCN(S(=O)(=O)c3ccc4c(c3)OCCO4)CC2)cc1	?	4%
CC(O)(c1ccccc1)c1nc(-c2cc3ccccc3o2)cs1 (stereo not drawn)	0%	?
CC(=O)NC(c1ccccc1)c1nc(-c2cccc(F)c2)cs1 (stereo not drawn)	-1%	7%
CC(C)=CCc1c([C@@H]2CCc3ccc(O)cc3O2)cc2c(c1O)OC(C)(C)C=C2	-5%	2%
COc1ccc(C(c2nnnn2-c2ccc(OC)cc2)N2CCC3(CC2)C(=O)NCN3c2ccccc2)cc1 (stereo not drawn)	4%	8%
O=C(NC1CC1)c1ccccc1	-11%	11%
CCN(c1ccccc1)S(=O)(=O)c1ccc(Cl)c(C(=O)Nc2ccncc2)c1	-23%	15%
CC(=O)NCCc1c[nH]c2ccc(OCc3ccccc3)cc12	6%	2%
c1ccc(-c2nc3c4ccccc4ccn3c2Cc2ccsc2)cc1	-2%	?
COc1ccc(OCCOC(=O)CNC(=O)c2ccc(F)cc2)cc1	-12%	16%
COc1ccc(NS(=O)(=O)c2cc(NC(=O)C(CC(C)C)NC(N)=O)ccc2N2CCOCC2)cc1 (stereo not drawn)	32%[activator]	4%
CN(c1ccc(C(=O)NCC2CCCO2)cc1)S(=O)(=O)c1ccc(Cl)cc1 (stereo not drawn)	-14%	-1%
Cc1cn([C@H]2C[C@H](O)[C@@H](/C=C/C(=O)NCC(c3ccccc3)c3ccccc3)O2)c(=O)[nH]c1=O	-15%	-11%
CC(=O)Nc1ccc(-c2ccnc3c2CC(C)(C(=O)NCC2CCOCC2)O3)cc1 (stereo not drawn)	-3%	-2%
COc1cccc(Nc2nc(C(N)Cc3ccc(Cl)cc3)cs2)n1 (stereo not drawn)	?	9%
CCc1nc2c(OCc3ccc(Cl)cc3)cccn2c1N(C)C(=O)c1ccncc1	-17%	6%[18.4 µM]
O=C1c2cccc3cccc(c23)C(=O)N1CCCn1ccnc1	-15%	3%
CC(C)c1ccc(CC(=O)N2CCC2(C)C(=O)NS(=O)(=O)c2ccc(C(C)(C)C)cc2)cc1 (stereo not drawn)	-4%	36%[18.4 µM]
Clc1cccc(Cc2c(-c3cccc(Cl)c3)nc3ccc(Cl)cn23)c1	1%	-21%
COc1ccc(S(=O)(=O)N2CCCC(C(=O)N3CCN(Cc4ccccc4)CC3)C2)cc1Cl (stereo not drawn)	-17%	6%
CCCCCC(=O)N1C[C@@H](O)[C@H](n2cc(-c3ccc(F)cc3)nn2)C[C@@H]1c1ccccc1	21%	14%
CO[C@H]1CN(C)C(=O)c2cc(NS(=O)(=O)c3ccccc3)ccc2OC[C@@H](C)N(Cc2ccccn2)C[C@@H]1C	-4%	-10%
CC1(C(=O)NS(=O)(=O)c2cccc(Cl)c2)CCN1C(=O)Cc1cc(F)ccc1F (stereo not drawn)	-6%	2%
CCOC(=O)C[C@H]1c2cc(F)ccc2S(=O)(=O)N1C(C)(C)C	19%	-1%
CN(C(=O)c1ccc(NC(=O)Cc2ccc(NC(=O)C3CCCN(C(=O)c4ccccc4)C3)cc2)cc1)C1CCCC1 (stereo not drawn)	-18%	-11%
N#Cc1ccc(Cl)cc1NC(=O)CN1C(=O)C(=O)N(CCC2=CCCCC2)C1=O	-25%	-2%
CNC(=O)[C@H]1O[C@@H](n2cnc3c(NCc4cccc(I)c4)nc(Cl)nc32)[C@H](O)[C@@H]1O	-20%&-20%	12%[18.4 µM]
CC(C)CC(N)c1csc(NC(=O)c2cc(C(C)(C)C)nn2Cc2ccccc2)n1 (stereo not drawn)	?	50%
CCN(CC)S(=O)(=O)c1ccc(N2CC(C(=O)NCc3ccco3)CC2=O)cc1 (stereo not drawn)	-27%	4%
CCCCCC(=O)N1C[C@@H](n2cc(-c3ccc(F)cc3)nn2)[C@H](O)C[C@@H]1c1ccc(Cl)cc1	-14%	-1%
O=C(Nc1ccccc1)c1cc(C2CCCCN2C(=O)OCc2ccccc2)on1 (stereo not drawn)	20%	-3%
CC(C)CN1CCC(CN2CCNC(=O)C2=O)CC1	-10%	-13%
CCCC(=O)N1CCC1(C)C(=O)Nc1ccccc1C(C)(C)C (stereo not drawn)	-21%	-10%
C[C@H]1CN([C@@H](C)CO)C(=O)c2cc(C#Cc3ccccn3)cnc2O[C@@H]1CN(C)Cc1ccccc1	-7%	28%
O=C(NCCS(=O)(=O)N1CCN(c2ccccc2)CC1)c1cc(=O)c2ccccc2o1	-9%	16%
COc1ccc(C2=Nc3ccccc3N(C(=O)c3ccc4ncccc4c3)C2C(=O)NC(C)(C)C)cc1 (stereo not drawn)	11%	-27%
COc1ccc(CNC(=O)c2[nH]c(C(F)(F)F)nc2-c2ccccc2)cc1OC	-10%	4%
O=C(CN1C(=O)NC2(CCCC2)C1=O)N1CCN(c2ccc(C(F)(F)F)cc2[N+](=O)[O-])CC1	-13%	-1%
CCOC(=O)[C@]12CCCC=C1N(Cc1ccc3c(c1)OCO3)C(=O)[C@H](CC(=O)N1CCCC1)C2	-10%	4%
CCCNC(=O)C1(C)CCCN(C(=O)c2cccc(Cl)c2)C1 (stereo not drawn)	0%	3%[18.4 µM]
CC(C)NC(=O)N1Cc2cc(C(=O)NC3CCC3)nc(-c3cccc(-c4cncnc4)c3)c2[C@H]1CCO	-20%	10%
COc1ccc(S(=O)(=O)N2CCC(C(=O)N[C@@H](C)C(=O)NCc3cccnc3)CC2)cc1	-16%	-10%

# Random excerpt: 2 records from the list, in no set order.
SMILES	StopGo reporter	RE007 growth inh
CCOC(=O)C[C@H]1c2cc(F)ccc2S(=O)(=O)N1C(C)(C)C	19%	-1%
COc1ccc(C2=Nc3ccccc3N(C(=O)c3ccc4ncccc4c3)C2C(=O)NC(C)(C)C)cc1 (stereo not drawn)	11%	-27%

# New compounds follow.
SMILES	StopGo reporter	RE007 growth inh
O=C(c1cccs1)N1C[C@@H](n2cc(-c3ccc(F)cc3)nn2)[C@H](O)C[C@@H]1c1ccc(Cl)cc1	?	-8%
CCN(CC)C(=O)C1=C(C)N(CCCOC)C(=O)C(CC(=O)NCCN2CCOCC2)C1 (stereo not drawn)	-19%	-3%
COc1ccc(CNC(=O)C2(CC3CC(c4ccccc4)=NO3)CCNCC2)cc1 (stereo not drawn)	-16%	15%
CS(=O)(=O)Nc1ccc(-c2cnc3cccnn23)cc1	1%	13%
COc1ccc(-c2ccc3nncn3c2)cn1	-4%	-9%
COc1ccccc1S(=O)(=O)N(C)C[C@H]1OCc2cnnn2CCCC(=O)N([C@@H](C)CO)C[C@@H]1C	-18%	14%
COc1ccc(C(C)=O)cc1Cn1c(C)c(C(=O)NCc2cccc(C(F)(F)F)c2)sc1=O	-2%	5%[18.4 µM]
COc1cccc(C(NC(C)=O)c2nc(-c3cc4ccccc4o3)cs2)c1 (stereo not drawn)	-16%	6%
CCOC(=O)C1CCCN(C(=O)c2ccc(N(C)C)cc2)CC1 (stereo not drawn)	11%	3%
O=C(Nc1ccc(Oc2ccccc2)cc1)c1csc([C@@H]2O[C@H](CO)[C@@H](O)[C@H]2O)n1	16µM*	10%
O=C(NC1CCCCC1)C(c1ccnc2ccccc12)N1CCc2ccccc2C1 (stereo not drawn)	27%	-11%
Cc1ccc(Cc2c(-c3ccc(Cl)cc3)nc3cc(C)ccn23)cc1	6%	-12%
C[C@H]1CN([C@@H](C)CO)C(=O)c2cc(-c3cccc(C(=O)N(C)C)c3)cnc2O[C@H]1CN(C)C(=O)Cc1ccccn1	-7%	-1%
Clc1ccc(-c2nc3c4ccccc4ccn3c2Cc2ccccc2)cc1	-2%	-24%
c1cc(-c2cc3nc(NC4CCCCC4)ccn3n2)ccc1OCCN1CCOCC1	?	-14%[18.4 µM]
CCOc1cccc(-c2ccc3nncn3c2)c1	6%	11%
Cc1cc(C)cc(-n2c3ccc(NC(=O)Cc4cccc5ccccc45)cc3c(=O)n2C)c1	-6%	10%
O=C(Nc1ccc(C(=O)N2CCCCC2)cc1)C1CCC1	-1%	14%
Nc1cccc(-c2cncc(N3CCN(Cc4ccccn4)CC3)n2)c1	-2%	?
COC(=O)[C@@]12C[C@@H](CC(=O)N3CCCCC3)C(=O)N(Cc3ccccc3)C1=CCC(C)(C)C2	-16%	8%
O=C(OC1CC2CC1[C@H]1CCCCN1C2=O)N1CCN(C(=O)c2ccccc2)CC1 (stereo partly drawn)	-18%	-17%
COc1ccc(N2CCN(C3C(=O)Nc4ccccc4-n4nnnc43)CC2)cc1 (stereo not drawn)	2%	-6%
COc1ccc(C(CNC(=O)c2ccc(-c3ccccc3Cl)o2)N2CCCC2)cc1 (stereo not drawn)	3%	1%
O=C(NCc1cccnc1)c1cc(C2CCCCN2C(=O)CCc2ccccc2)on1 (stereo not drawn)	-15%	4%
CCNC(=O)C1(C)CCN(C(=O)c2ccccc2OC)C1 (stereo not drawn)	-13%	2%
COc1ccc(CCNC(=O)Nc2nc(CN)cs2)cc1OC	0%	2%
CC1=C(C(=O)N2CCOCC2)CC(CC(=O)NCC2CCCCC2)C(=O)N1Cc1ccccc1 (stereo not drawn)	-28%	3%
COc1ccc(C(NC(=O)C2CCN(CCOc3ccc(Cl)cc3)CC2)c2cccs2)cc1 (stereo not drawn)	-22%	-14%
O=C(COC(=O)c1ccc(O)cc1)NC1CCCCCCC1	8%	0%
CC(O)(c1ccccc1)c1nc(-c2cccc(C(=O)O)c2)cs1 (stereo not drawn)	45%[activator]	8%
O=C(NCc1cccnc1)c1cc(C2CCCN(S(=O)(=O)c3ccccc3)C2)on1 (stereo not drawn)	-18%	-5%
Cc1ccc(F)c(S(=O)(=O)NC(=O)C2(C)CCN2C(=O)C2(c3ccc(Cl)cc3)CC2)c1 (stereo not drawn)	63%[activator]	9%[18.4 µM]
CC(C)C[C@@H](CN1CCCC1CN1C(=S)NC[C@@H]1Cc1ccccc1)N1C[C@H](Cc2ccccc2)N(CCc2ccccc2)C1=S (stereo partly drawn)	-22%	-3%
CCC1NC(=O)c2cccnc2-n2c1nc1ccc(OC)cc1c2=O (stereo not drawn)	-21%	-8%
O=C(NCCc1ccccc1)c1ccc(NC(=O)C2CCCCC2)cc1	-3%	-12%
CC(C)(C)c1ccc(C(=O)N2CCC2(C)C(=O)Nc2cccc3ncccc23)cc1 (stereo not drawn)	?	-14%
C/C=C1\COC(C(=O)NCc2ccncc2)(C(F)(F)F)C=C1C=C1CCCCC1 (stereo not drawn)	-20%	7%
COc1ccc(NC(=O)c2sc(=O)n(Cc3ccc(F)c(Cl)c3)c2C)cc1OC	-21%	-16%[18.4 µM]
COc1ccc(NC(=O)c2cc(-c3ccc(F)cc3OC)n[nH]2)c(OC)c1	-23%	-6%
Cn1nc(N)c2ncc(-c3ccc(Cl)cc3)nc21	0%	-4%
CN(C(=O)COC(=O)/C=C/c1ccccc1)C1CCS(=O)(=O)C1 (stereo not drawn)	0%	-5%
Nc1[nH]c(C(=O)c2ccccc2)c(-c2ccc(Br)cc2)c1C(=O)NCCc1c[nH]c2ccccc12	-20%	-23%
CCN(CC(=O)Nc1ccc(NC(C)=O)cc1)CC(=O)Nc1cccc2ccccc12	-22%	-8%

# Entries of single compounds, quoted from the list:
# `CCN(CC)S(=O)(=O)c1ccc(N2CC(C(=O)NCc3ccco3)CC2=O)cc1` (stereo not drawn) is listed as StopGo reporter = -27%; RE007 growth inh = 4%
# `COc1ccc(NC(=O)c2sc(=O)n(Cc3ccc(F)c(Cl)c3)c2C)cc1OC` is listed as StopGo reporter = -21%; RE007 growth inh = -16%[18.4 µM]

# 3 structures out of the list, arranged by length of the SMILES, highest first:
SMILES	StopGo reporter	RE007 growth inh
CC(C)C[C@@H](CN1CCCC1CN1C(=S)NC[C@@H]1Cc1ccccc1)N1C[C@H](Cc2ccccc2)N(CCc2ccccc2)C1=S (stereo partly drawn)	-22%	-3%
C/C=C1\COC(C(=O)NCc2ccncc2)(C(F)(F)F)C=C1C=C1CCCCC1 (stereo not drawn)	-20%	7%
COc1ccc(NC(=O)c2sc(=O)n(Cc3ccc(F)c(Cl)c3)c2C)cc1OC	-21%	-16%[18.4 µM]

# These rows are one share of the data; the hit share may differ from the screen's.
